# From PubChem
# gsp antag: gsp mutant antagonism; gsp-mutant cells, cAMP HTRF, 30 min; control for the full effect not named in the record; Potency, µM (series often up to 76.9 µM), without a hit: at the highest dose activity change, negative = inhibition, hits mostly inhibitors; 340,000 compounds, 0.4% hits; active = falling curve of any shape with a large fitted effect; inconclusive = falling curve, mostly with a smaller effect; inactive = flat or rising curve; cell line not stated here;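 further: intracellular cAMP measured with PDE inhibitor Ro 20-1724 present during compound exposure; potency means the concentration at half of the fitted maximal effect; on the % scale 0 is the no-effect control and ±100 the full control effect; nearly all actives have a fitted effect of over 65% in size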
#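 HTRF cAMP read-out (cAMP-d2 plus anti-cAMP antibody-K in lysis buffer, 30 min RT). Before lysis, cells are exposed to compounds with […] for 30 min at 37C in DPBS containing Ca/Mg, BSA and Tween 20.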
# PINK1 expr mod: changes PINK1 expression; 410,000 compounds, 0.2% hits; Potency, µM (doses to about 76.6 µM), for inactives: top-dose activation (PINK1 increase), hits mostly activators; AID 624263; PINK1 immunofluorescence, high-content cytometry, 24 h; active = well fitted activation curve with a large enough effect; inconclusive = small, poorly fitted or top-dose-only effect; inactive = flat fitted curve, though single readings scatter; cell line not stated here;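 further: potency means the concentration at half of the fitted maximal effect; % of control where 0% means no effect; nearly all actives have a fitted effect of over 65% in size; a mitochondrial uncoupler was the plate control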
#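 PINK1 protein level read as immunofluorescence by microplate cytometer in a fixed, stained stable cell line after 24 h exposure to five compound concentrations, with CCCP as control.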
# D2 agonist: activates the human D2 dopamine receptor; P14416; DiscoveRx PathHunter D2 beta-arrestin, luminescence, 90 min; 100% = 57 uM dopamine signal; activation, % (no concentration beside the values); 360,000 compounds, 0.084% hits; in the data active = activation above about 40%; inconclusive = about 15% to 40%; inactive = below about 15%; further: compound concentration not given in the record; the text of the record calls up to 30% inactive
# Target sequence (P14416 whole entry, looked up): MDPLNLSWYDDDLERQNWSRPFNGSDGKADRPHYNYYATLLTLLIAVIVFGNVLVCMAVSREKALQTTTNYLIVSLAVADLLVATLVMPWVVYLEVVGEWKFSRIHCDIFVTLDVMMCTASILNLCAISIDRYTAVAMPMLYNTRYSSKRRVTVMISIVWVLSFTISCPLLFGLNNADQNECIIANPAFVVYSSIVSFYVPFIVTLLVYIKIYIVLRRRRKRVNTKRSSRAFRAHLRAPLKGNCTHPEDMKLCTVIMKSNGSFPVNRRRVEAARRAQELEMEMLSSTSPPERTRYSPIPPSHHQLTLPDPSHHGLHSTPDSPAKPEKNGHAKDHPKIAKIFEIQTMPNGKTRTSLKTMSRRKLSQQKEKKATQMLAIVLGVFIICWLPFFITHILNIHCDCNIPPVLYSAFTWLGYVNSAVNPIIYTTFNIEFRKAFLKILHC
#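 Agonist mode: compounds alone added to overnight-plated D2 PathHunter cells for 90 min at 37 C, with 57 uM final dopamine (EC100) defining full response. Beta-arrestin recruitment detected by chemiluminescent reagent, read after 1 h at ambient temperature.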
# ClpP mod: qHTS Assay for Activators of ClpP; ATP-dependent Clp protease proteolytic subunit (Bacillus subtilis (strain 168)), P80244; purified B. subtilis ClpP, FRET peptide cleavage, 20 min; Potency, µM (doses to about 57.5 µM), for inactives: top-dose activity change, negative = active; 340,000 compounds, 1.9% hits; active = well fitted falling curve with a large enough effect; inconclusive = small, poorly fitted or top-dose-only effect; inactive = no such curve, though single readings can be large or run the other way; further: potency means the concentration at half of the fitted maximal effect; the source files actives as falling curves though it sought activators and does not explain the sign; nearly all actives have a fitted effect of over 65% in size; many hits overshoot -100%
# Target sequence (P80244 whole entry, looked up): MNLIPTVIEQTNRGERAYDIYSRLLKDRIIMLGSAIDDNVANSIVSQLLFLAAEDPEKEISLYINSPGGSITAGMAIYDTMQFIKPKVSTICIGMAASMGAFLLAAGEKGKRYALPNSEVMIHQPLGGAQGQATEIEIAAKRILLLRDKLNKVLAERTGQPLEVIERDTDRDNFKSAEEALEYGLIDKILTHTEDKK
#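 Buffer: 100 mM Tris/HCl pH8, 100 mM KCl, 0.05% low protease BSA, 2.5% glycerol, 0.01% Tween-20. ClpP 10 microg/mL final; 20 min RT; delta FRET normalized to ADEP and DMSO controls.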
# gsp agonist: gsp mutant agonism; 340,000 compounds, 0.13% hits; gsp mutant cells, cAMP HTRF, 30 min; control for the full effect not named in the record; Potency, µM (titrated, usually from 76.9 µM), without a hit: at the highest dose activation (cAMP increase), most hits filed as activators; active = well fitted activation curve with a large enough effect; inconclusive = small, poorly fitted or top-dose-only effect, or another doubt; inactive = no such curve, though single readings can be large or run the other way; cell line not stated here;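 further: phosphodiesterase inhibitor Ro 20-1724 added with compounds to block cAMP breakdown; potency means the concentration at half of the fitted maximal effect; nearly all actives have a fitted effect of over 60% in size; about a fifth of the inactives were tested at one dose only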
#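 Cells stably selected in G418 were plated at 2000/well, grown 16-24 hr, then given compounds in DMSO with the PDE inhibitor […] (300 uM solution added) for 30 min at 37C; cAMP was read by HTRF.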
# Sfp PPTase inh: inhibitors of Bacillus subtilis Sfp phosphopantetheinyl transferase; 310,000 compounds, 3.5% hits; Biochemical Sfp PPTase activity, qHTS; Q9F4F7; AID 1490; Potency, µM, for the others: max response, negative = inhibition, most hits filed as inhibitors; active means well fitted inhibition curve with a large enough effect; inconclusive means small, poorly fitted or top-dose-only effect, or another doubt; inactive means no such curve, though single readings can be large or run the other way;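 further: the enzyme is Sfp with the accession as filed and its product quenches rhodamine fluorescence; potency means the concentration at half of the fitted maximal effect; 0% = enzyme reaction without inhibitor and -100% = no enzyme wells; top concentration of the series not given in the record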
#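 Reaction rates are the 30-min fluorescence difference (ex 525, em 598 nm) in wells containing 15 nM Sfp, 5 uM rhodamine-CoA and 12.5 uM BHQ-2-YbbR at pH 7.6 with 10 mM MgCl2.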
# Menin-MLL FL inh: inhibitors of human menin-MLL interaction, wild-type MLL peptide; Fluorescence polarization, fluorescein-MLL peptide displacement from menin; FP activity change, % at 61.4 µM; 290,000 tested, under 10 active; inconclusive = falling polarisation curve, or a change in total fluorescence; inactive = total fluorescence flat and polarisation flat or rising; no compound was filed as active; the % refers to the polarisation; negative = inhibition;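 further: % of control where 0% means no effect; inhibitors lower the polarisation; unlabelled MLL peptide was the positive control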
# * marks the source's active call; other numbers are inactive results; ? = inconclusive; . = no result given; & = joins results of further samples; [ ] = another dose, or the depositor's remark. Only part of the results is shown; rates above refer to the full screens.
smiles | PINK1 expr mod | D2 agonist | ClpP mod | Sfp PPTase inh | gsp agonist | Menin-MLL FL inh | gsp antag
OC(CNC1CCCCC1)c1ccccc1 (configuration not stated) | -2.2% | -3.5 | 0.7% | 7% | 27% | -3.0 | 13%
C/C(=N\N1CCN(C)CC1)c1c(O)n(Cc2ccccc2)c(=O)[nH]c1=O | 0.1% | 2.3 | 1.1% | 18% | -28% | -0.8 | 8%
Cc1nc(-c2cccc(NC(=O)c3ccc(Cl)c(S(=O)(=O)N4CCCC4)c3)c2)cs1 | -0.7% | 4.5 | -9.7% | . | -1% | . | .
COc1ccc(-n2c(O)c(/C=C3\C=Nc4ccc(Br)cc43)c(=O)[nH]c2=O)c(OC)c1 | -1.2% | 4.3 | . | -21% | ? | 8.1 | -18%
O=C(COC(=O)Cc1ccccc1)Nc1nnc(-c2ccccc2)o1 | -1.3% | 1.6 | . | . | -3%[15.4 µM] | . | -6%
COc1ccccc1CNC(=O)Cn1c(=O)oc2cc(Cl)ccc21 | 2.6% | -2.4 | . | 12% | ? | 2.3 | 2%
CCOC(=O)CC1=C(C(=O)OCC)C2(C(=O)Nc3ccccc32)C(C#N)=C(N)O1 (configuration not stated) | -3.1% | 12 | -2.4% | 6% | -19% | 2.3 | 5%
Cc1nc2ccccc2c2c1C(=O)N(Cc1cccnc1)C2=O | -1.5%[38.3 µM] | -2.8 | 8.5% | 1% | ? | 0.9 | -12%
COC(=O)C1=C(c2ccc(F)cc2OCc2ccccc2)C[C@@H]2CC[C@H]1N2C(=O)N1CCOCC1 | -1.2% | -6.7 | 0.8% | . | -1% | . | 0%
COc1ccc2cc(C(=O)C3CCCN(C4CCOCC4)C3)ccc2c1 (configuration not stated) | 0.3% | 0.5 | . | 17% | -17% | -0.7 | 1%
Clc1ccc(C(c2ccccc2)c2ncc[nH]2)cc1 (configuration not stated) | -0.9% | -2.5 | 0.6% | 1% | 24% | 1.2 | -13%
CCOC(=O)C1CCN(/C=C2/C(=O)NC(=O)N(c3cccc(C)c3C)C2=O)CC1 | 0.5% | 0.8 | -2.2% | ? | -48%[inhibitor] | ? | 7%
C=CCC1(C(C)CCC)C(=O)N=C(S)NC1=O (configuration not stated) | -1.4% | . | . | 23% | . | -0.6 | .
O=c1[nH]c(=S)n(Cc2ccc(F)cc2)c(O)c1C=NCc1ccc2c(c1)OCO2 | 12% | 4.3 | . | 22% | ? | 0.6 | 9%
O=C1NCN(c2ccccc2)C12CCN(C(CCc1ccccc1)c1nnnn1C1CCCC1)CC2 (configuration not stated) | 6.3% | -2.5 | 3.3% | . | . | . | .
c1ccc2c(CCN3CCCCC3)c[nH]c2c1 | 0.6% | -7.7 | ? | . | . | . | .
COc1ccccc1-n1c(-c2ccccc2F)nc2ccccc2c1=O | 0.6% | -0.2 | . | . | 24% | . | 1%
COc1ccc(CC2C(=O)NC(=O)N(c3ccccc3)C2=O)c(OC)c1 (configuration not stated) | 3.2%[38.3 µM] | 2.0 | -0.3% | 89µM* | -15% | 2.1 | -1%
Cc1cc(OCc2nn[nH]n2)c2c3c(c(=O)oc2c1)CCC3 | -0.7% | -2.5 | 42% | 17% | -14% | 4.5 | -10%
Cc1ccc(OCC(=O)N2CCN(C3CCC(c4ccccc4)CC3)CC2)cc1 (configuration not stated) | 4.8% | -1.8 | . | ? | -11%[15.4 µM] | 5.9 | -7%
CC(=O)c1c(C)n(CCCOC(C)C)c2ccc(O)cc12 | -0.2%[38.3 µM] | -2.7 | -0.4% | 22% | -69%[inhibitor] | 4.2 | -17%
CCOCC(=O)NC1CCSC1=O (configuration not stated) | -0.9% | -2.2 | -0.4% | 16% | -16% | -6.0 | 13%
Cc1ccc(S(=O)(=O)NCC(=O)OCC(=O)N2N=C(c3ccc(Cl)cc3)CC2c2ccco2)cc1C (configuration not stated) | 3.5% | -4.5 | ? | -14% | -7% | 5.5 | -1%
Cn1cc(C=C2C(=O)NC(=O)NC2=O)c2ccccc21 | -0.9% | -3.2 | -1.6% | -28% | -3%[15.4 µM] | ? | -9%
Cc1cc(=O)oc2c1c(C)nn2-c1nn[nH]n1 | 2.7% | -3.4 | 0.7% | 2% | 0% | -0.4 | 15%
CN1CCN(Cc2cn(C)c3ccccc23)CC1CCO (configuration not stated) | -0.4% | -0.3 | . | 5% | -22% | -0.5 | 5%
CN1CCC2(CC1)c1ccccc1-c1ccccc12 | -1.6% | -4.9 | 0.9% | . | -10%[15.4 µM] | . | -6%
CC(=O)Nc1ccc([As](=O)(O)c2ccc([N+](=O)[O-])cc2)cc1 | 1.6% | -2.0 | . | 23% | 13%[15.4 µM] | -1.8 | 7%
O=C(CCC(=O)N1CC2C[C@@H](C1)Cn1c2cccc1=O)NCCc1ccccc1 | 0.6% | 14 | -4.9% | 17% | . | -1.9 | -3%
CNC(=S)NC1CC2CCCC(C1)N2CC(C)C (configuration not stated) | . | 0.1 | -0.7% | 4% | -33%[inhibitor] | 3.9 | 7%
O=C(COC(=O)c1ccc(O)cc1)Nc1ccc(Cl)cc1C(=O)c1ccccc1 | 23% | 9.5 | . | -8% | -5%[15.4 µM] | 1.9 | -25%
C[C@@H]1CC[C@@]2(NC1)O[C@H]1C[C@H]3[C@@H]4CC=C5C[C@@H](O)CC[C@]5(C)[C@H]4CC[C@]3(C)[C@H]1[C@@H]2C | 0.6% | 1.1 | . | 0% | 12% | . | 4%
CN1CC2CN(Cc3ccccc3)S(=O)(=O)C2C1 (configuration not stated) | -0.7% | -1.9 | 2.6% | . | . | . | .
COC(=O)C1=C(c2ccc(F)cc2OCc2ccccc2)C[C@@H]2CC[C@H]1N2C(=O)N1CCCC1 | 9.2% | 2.7 | 1.9% | . | 0% | . | -21%
CCCNC(=O)N1[C@H]2CC[C@@H]1C(C(=O)OC)=C(c1cc3ccccc3o1)C2 | -0.3% | -3.2 | -1.4% | . | ? | . | -12%
COc1ccc(N2C(=O)CS(=O)C(c3ccccc3)C2=O)cc1 (configuration not stated) | 10.0% | 3.6 | . | 1.6µM* | 18% | ? | -2%
COC(=O)C1=C(c2ccc(F)cc2OCc2ccccc2)C[C@@H]2CC[C@H]1N2C(=O)NCCO | -0.2% | -1.5 | 1.9% | . | ? | . | 2%
CCOC(=O)c1ccccc1NC(=O)c1c(O)[nH]c(=S)[nH]c1=O | 1.1% | -3.2 | -3.5% | . | -43%[inhibitor] | . | 1%
O=Cc1c(C(=O)O)n(Cc2ccc(F)cc2Cl)c2ccccc12 | 0.7% | -2.3 | -5.3% | 14% | -4% | 6.4 | -24%
COCCCn1c(N)c(C(=O)NCCC(C)C)c2nc3ccccc3nc21 | 11%[38.3 µM] | -1.1 | 32µM* | -8% | -1% | 4.0 | 1%

# A few values from the entries so far.
# O=C(CCC(=O)N1CC2C[C@@H](C1)Cn1c2cccc1=O)NCCc1ccccc1 in Menin-MLL FL inh is listed with -1.9
# CCOCC(=O)NC1CCSC1=O (configuration not stated) in D2 agonist is listed with -2.2

# (list continues)
smiles | PINK1 expr mod | D2 agonist | ClpP mod | Sfp PPTase inh | gsp agonist | Menin-MLL FL inh | gsp antag
N#CC(C#N)=NNc1ccc(S(N)(=O)=O)cc1 | -0.2% | -9.0 | 1.7% | 4% | ? | 3.4 | 4%
CCN(CCO)c1ccc(N=Cc2c(O)n(C)c(=S)[nH]c2=O)cc1 | 1.1% | 3.4 | . | 40µM* | 27% | ? | -19%
c1ccc(N2CC3(CCNCC3)C2)cc1 | -0.9% | . | . | -25% | . | 0.1 | .
COC(=O)C1=C(c2ccc(OC(F)(F)F)cc2)C[C@@H]2CC[C@H]1N2C(=O)N1CCCCC1 | 4.6% | 3.6 | 1.7% | . | 15% | . | -4%
COC(=O)C1=C(c2ccccc2)C[C@@H]2CC[C@H]1N2C(=O)NCc1ccc(C(F)(F)F)cc1 | -1.3% | -12 | 2.3% | . | -5% | . | -4%
CC(O)(CS(=O)(=O)c1cccc(C(F)(F)F)c1)C(=O)Nc1ccc(C(F)(F)F)cc1 (configuration not stated) | 2.3%[38.3 µM] | -1.1 | 0.5% | 20% | 0% | -0.7 | 4%
O=C(Oc1ccccc1)N1CCC[C@@]2(CCN(Cc3cc(C(F)(F)F)cc(C(F)(F)F)c3)C2)C1 | 0.2% | . | . | 10% | . | -1.0 | .
Cc1ccc(-n2c(-c3nn(C)c(C)c3Cl)n[nH]c2=S)cc1 | -1.8% | 1.5 | -2.0% | 56µM* | ? | 2.5 | 5%
Cc1ccc(/C=C2/C(=O)NC(=O)N(CCc3ccc(F)cc3)C2=O)s1 | 10% | -1.8 | -6.4% | 7% | 9%[15.4 µM] | . | -5%
Cc1oc2ccc(OC(=O)N(C)C)cc2c1C(=O)OC(C)C | -2.2% | -1.6 | 0.7% | 5% | 2% | -1.5 | ?
CCOP(=S)(OCC)c1ccc(N(C)C)cc1 | 9.7%[38.3 µM] | -2.4 | -2.2% | -2% | 9% | 4.4 | 5%
CCC(C)/C=C(C)/C=C/C1=CC2=C(Cl)C(=O)C(C)(OC(C)=O)C(=O)C2=CO1 (configuration not stated) | 2.5% | -7.7 | 20% | 10% | . | -11 | ?
O=C(O)CCCc1ccc(N(CCCl)CCCl)cc1 | 0.4%&-0.5% | -4.2 | 17%&-0.4% | -9%&17%&22% | . | 7.2 | -10%
CCN1CCN(c2ccc(NC(=O)C(C)C)cc2Cl)CC1 | 2.4% | -2.3 | -2.6% | 12% | -43%[inhibitor] | -3.4 | -2%
Cc1ccsc1C(=O)C1CCCN(Cc2cc3ccccc3o2)C1 (configuration not stated) | 2.1% | -3.2 | -3.5% | -14% | 14% | 8.0 | ?
CCC12CN3CCN(CC(C3)/C1=N/NC(N)=O)C2 | 0.1% | -1.7 | . | 22% | -8%[15.4 µM] | -5.2 | 7%
CN(C)C(=O)Oc1cccc([N+](C)(C)C)c1 | 0.8%&0.2% | 4.7&-3.0 | 0.7%&-0.2% | 7%&-1%&17%&15%&13% | . | ? | -3%&-1%
O=c1cc(C2CCNCC2)[nH][nH]1 | 0.2% | -1.4 | -4.6% | 9% | -2% | 2.2 | 6%
CC(C)=CCCC(C)CN(C)CCc1ccccn1 (configuration not stated) | -0.5%[38.3 µM] | -0.6 | -2.3% | -7% | -38%[inhibitor] | 2.2 | 14%
